# Screening results as filed in PubChem.
# gsp agonist: qHTS for Agonist of gsp, the Etiologic Mutation Responsible for Fibrous Dysplasia/McCune-Albright Syndrome: qHTS; 340,000 tested, 0.13% active; Potency, µM (highest dose often 76.9 µM), without a hit: at the top dose activation (cAMP increase), usual class: activators; AID 624287, 2012; gsp mutant cells, cAMP HTRF, 30 min; control for the full effect not named in the record; active = well fitted activation curve with a large enough effect; inconclusive = small, poorly fitted or top-dose-only effect, or another doubt; inactive = no such curve, though single readings can be large or run the other way; cell line not stated here;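 also: phosphodiesterase inhibitor Ro 20-1724 added with compounds to block cAMP breakdown; potency is read from the fitted curve at half-maximal effect; nearly all actives have a fitted effect of over 60% in size; about a fifth of the inactives were tested at one dose only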
#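 Cells stably selected in G418 were plated at 2000/well, grown 16-24 hr, then given compounds in DMSO with the PDE inhibitor […] (300 uM solution added) for 30 min at 37C; cAMP was read by HTRF.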
# Menin-MLL FL inh: qHTS Assay for Inhibitors Targeting the Menin-MLL Interaction in MLL Related Leukemias: Competition With Fluorescein Labeled MLL-derived Peptide; FP activity change, % at 61.4 µM; Fluorescence polarization, fluorescein-MLL peptide displacement from menin; 290,000 tested, under 10 active; inconclusive = falling polarisation curve, or a change in total fluorescence; inactive = total fluorescence flat and polarisation flat or rising; no compound was filed as active; the % refers to the polarisation; negative = inhibition;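 also: % of control where 0% means no effect; inhibitors lower the polarisation; unlabelled MLL peptide was the positive control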
# TRPV1 PAM: HTS Assay for Compounds that Act as Potentiators of the Vanilloid Receptor 1; Transient receptor potential cation channel subfamily V member 1 (Homo sapiens), Q8NER1; TRPV1-expressing cells, Fluo-8 calcium influx, capsaicin EC20 potentiation; host cell line not named in the record; control for the full effect not named in the record; potentiation, % at 8.33 µM; 320,000 tested, 0.02% active; active means potentiation above 80%; inconclusive means 30% to 80%; inactive means below 30%; also: 0% is about no effect
#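 Cells expressing TRPV1 were dye-loaded with Fluo-8 and read kinetically: 10 s baseline, 3 min after compound (agonist portion), then 2 min after EC20 capsaicin (allosteric enhancer portion). Calcium-bound dye fluorescence at 480/520 nm.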
# Sfp inh: qHTS Assay for Inhibitors of Bacillus subtilis Sfp phosphopantetheinyl transferase (PPTase). Biochemical Sfp PPTase activity, qHTS. Potency, µM, inactives show max response, negative = inhibition, most hits filed as inhibitors. 310,000 tested, 3.5% active. AID 1490, 2009; active = well fitted inhibition curve with a large enough effect; inconclusive = small, poorly fitted or top-dose-only effect, or another doubt; inactive = no such curve, though single readings can be large or run the other way;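 also: the enzyme is Sfp with the accession as filed and its product quenches rhodamine fluorescence; potency is read from the fitted curve at half-maximal effect; 0% = enzyme reaction without inhibitor and -100% = no enzyme wells; top concentration of the series not given in the record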
#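 After 15 min at room temperature with compound, 15 nM Sfp received 5 uM rhodamine-CoA plus 12.5 uM BHQ-2-ybbR (50 mM Hepes pH 7.6, 10 mM MgCl2). Rate came from the fluorescence difference over 30 min, ex 525/em 598 nm.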
# ClpP mod: qHTS Assay for Activators of ClpP; purified B. subtilis ClpP, FRET peptide cleavage, 20 min; 340,000 tested, 1.9% active; AID 651965, 2013; Potency, µM (titrated, usually from 57.5 µM), for inactives: top-dose activity change, negative = active; ATP-dependent Clp protease proteolytic subunit (Bacillus subtilis (strain 168)), P80244; active = well fitted falling curve with a large enough effect; inconclusive = small, poorly fitted or top-dose-only effect; inactive = no such curve, though single readings can be large or run the other way; also: potency is read from the fitted curve at half-maximal effect; the source files actives as falling curves though it sought activators and does not explain the sign; nearly all actives have a fitted effect of over 65% in size; many hits overshoot -100%
# Target sequence (P80244 whole entry, looked up): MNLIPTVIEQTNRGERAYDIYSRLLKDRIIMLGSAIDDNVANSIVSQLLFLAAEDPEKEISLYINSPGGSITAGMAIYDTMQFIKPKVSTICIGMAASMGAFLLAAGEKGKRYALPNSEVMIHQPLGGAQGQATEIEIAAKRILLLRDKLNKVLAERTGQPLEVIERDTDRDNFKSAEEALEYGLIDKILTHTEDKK
#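 FRET quenching reversal measured ClpP activation: 10 microg/mL B. subtilis ClpP at pH 8 with the FRET-FV decapeptide, read at 430 nm after 320 nm excitation. The 20-min minus 0-min signal was scaled between DMSO/no-enzyme wells and ADEP (5.8 microM final).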
# D2 PAM: Beta-Arrestin HTS for Positive Allosteric Modulators of the Human D2 Dopamine Receptor: Potentiators; D(2) dopamine receptor (Homo sapiens), P14416; DiscoveRx D2 beta-arrestin cells, luminescence, 90 min; 100% = 57 uM dopamine signal; potentiation, % (test concentration not listed); 360,000 tested, 0.23% active; active = potentiation of 50% or more; inconclusive = 30% to 50%; inactive = 30% or less;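 also: compound concentration not given in the record; tested on top of an EC20 dose of dopamine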
# Target sequence (P14416 whole entry, looked up): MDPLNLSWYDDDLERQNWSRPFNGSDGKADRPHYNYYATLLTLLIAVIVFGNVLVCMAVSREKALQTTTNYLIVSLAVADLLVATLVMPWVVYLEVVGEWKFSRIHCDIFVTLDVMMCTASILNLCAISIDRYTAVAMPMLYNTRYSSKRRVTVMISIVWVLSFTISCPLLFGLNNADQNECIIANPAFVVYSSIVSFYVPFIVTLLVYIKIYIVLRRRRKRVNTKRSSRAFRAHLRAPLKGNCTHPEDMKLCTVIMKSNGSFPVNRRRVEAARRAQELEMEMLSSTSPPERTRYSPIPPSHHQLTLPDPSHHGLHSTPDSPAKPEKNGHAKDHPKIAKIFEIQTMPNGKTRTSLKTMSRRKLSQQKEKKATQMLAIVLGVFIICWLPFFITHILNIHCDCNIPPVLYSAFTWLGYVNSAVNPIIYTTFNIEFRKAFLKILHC
#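 PathHunter D2 cells, attached overnight at 37 deg C, received compound in DMSO plus dopamine at EC20 (50 nM final) for 90 min at 37 deg C. Beta-arrestin recruitment was read as luminescence after 1 h with detection reagent at ambient temperature.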
# gsp antag: qHTS for Antagonists of gsp, the Etiologic Mutation Responsible for Fibrous Dysplasia/McCune-Albright Syndrome: qHTS; gsp-mutant cells, cAMP HTRF, 30 min; control for the full effect not named in the record; 340,000 tested, 0.4% active; Potency, µM (highest dose often 76.9 µM), for the others: at the top dose activity change, negative = inhibition, usual class: inhibitors; AID 624288, 2012; active = falling curve of any shape with a large fitted effect; inconclusive = falling curve, mostly with a smaller effect; inactive = flat or rising curve; cell line not stated here;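 also: intracellular cAMP measured with PDE inhibitor Ro 20-1724 present during compound exposure; potency is read from the fitted curve at half-maximal effect; % is scaled to controls: 0 for no effect and ±100 for the full control effect; nearly all actives have a fitted effect of over 65% in size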
#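 G418-selected cells were plated in DMEM/10% FBS for 16-24 h at 37C, then treated with compounds plus the PDE inhibitor […] (300 uM solution added) for 30 min at 37C. Intracellular cAMP was measured by HTRF after 30 min lysis at room temperature.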
# An asterisk follows results filed as active; ? = inconclusive; . = no result given; & = joins results of further samples; [ ] = dose if it differs, or a comment.
SMILES,gsp agonist,Menin-MLL FL inh,TRPV1 PAM,Sfp inh,ClpP mod,D2 PAM,gsp antag
O=C(CN1CCCCCC1)N/N=C/c1cccs1,-1%,3.6,6,-8%,-0.8%,-5,6%
C[C@@H]1CN([C@@H](C)CO)C(=O)CCCn2nncc2CO[C@H]1CN(C)S(=O)(=O)c1ccccc1,-19%,.,.,.,-5.0%,-4,.
O=C(Nc1sc2c(c1C(=O)O)CCC2)c1ccccc1Cl,2%[15.4 µM],0.6,12,18%,0.5%,-5,-34%
CCCn1nc(C(=O)NNC(=O)C2CSC3(C)CCC(=O)N23)c2ccccc2c1=O (stereo not given),12%[15.4 µM],.,27,.,.,-4,0%
Cc1ccc(CN2C(=O)CCC2C(=O)NCc2ccc3c(c2)OCO3)cc1 (stereo not given),-40%[inhibitor],0.3,29,0%,-4.3%,4,12%
O=C(COC(=O)c1ccc(Br)o1)NCC1CCCCC1,-2%[15.4 µM],.,.,.,1.7%,8,6%
Cc1ccc(NC(=O)CSc2nc(=O)cc(N)n2-c2ccccc2)cc1,-41%,3.4,0,11%,-0.9%&-0.7%,8,1%
O=C(CCS(=O)(=O)c1ccccc1)Nc1ccc(N2CCOCC2)cc1,36%,-0.4,2,8%,.,-1,1%
COc1ccc(CC(=O)Nc2ccc(-c3csc(C)n3)cc2)cc1,?,3.3,-12,12%,-1.5%,4,3%
O=C1c2ccc(-c3ccc4c(c3)C(=O)N(CCO)C4=O)cc2C(=O)N1CCO,-42%[inhibitor],-1.9,-10,8%,3.5%,-11,-1%
COc1ccc(C2c3c(oc4ccccc4c3=O)C(=O)N2Cc2ccncc2)cc1OC (stereo not given),0%,.,.,.,0.3%,12,-9%
CC1CN(Cc2cc(=O)oc3cc(O)ccc23)CC(C)O1 (stereo not given),5%,-2.2,0,6%,.,2,-3%
C=CCNC(=S)N1CCC(C(N)=O)CC1,11%[15.4 µM],-1.5,-2,?,-0.7%,-1,9%
O=C(c1cc(C2CC2)on1)N1CCCC(N2CCN(c3ccc(F)cc3)CC2)C1 (stereo not given),-38%[inhibitor],.,-5,7%,0.1%,-17,-1%
CC(=O)NS(=O)(=O)c1ccc(NC(=O)NC2CCCCC2)cc1,-1%,2.2,-6,8%,0.5%,0,12%
C/C(=N/OC(=O)c1cccc(Cl)c1)c1nccs1,4%,0.3,-24,1%,-1.2%,-18,-10%
COC(=O)Nc1cc(C(F)(F)F)ccc1N1CCN(c2ccccc2)CC1,-53%[inhibitor],-18,-6,-5%,-1.6%,13,3%
COc1ccc(OC)c(NC(=O)c2cccc(S(=O)(=O)N3CCN(C(C)=O)CC3)c2)c1,8%[15.4 µM],.,-7,14%,1.9%,-1,-20%
Cc1ccc2nc(NC(=O)CSc3nncc(=O)n3N)sc2c1,10%,6.1,-1,-16%,25µM*,0,-14%
CCOc1ccccc1NS(=O)(=O)c1ccc2[nH]c(=O)[nH]c2c1,8%[15.4 µM],0.2,3,4%,.,-6,5%
On1c(-c2ccccc2Cl)nc2ccccc21,3%[15.4 µM],-0.1,-25,16%,.,0,-1%
Cc1ccc(S(=O)(=O)N2CCCCC2)cc1NC(=O)c1cc(=O)[nH]c2ccccc12,-15%,.,7,.,-26%,-4,-7%
O=C1CC(c2ccccc2)CC(O)=C1C=NCc1ccccc1 (stereo not given),-48%[inhibitor],2.5,-3,21%,0.4%,3,4%
CC1CCC(NC(=O)CCC(=O)N2CC(C)Oc3ccccc32)CC1 (stereo not given),?,0.0,2,0%,-0.6%,-10,4%
CN(Cc1ccon1)C(=O)CC1C(=O)NCCN1CC(C)(C)C (stereo not given),-5%[15.4 µM],-12,-3,12%,.,-1,11%
CCN(CC)S(=O)(=O)c1cccc(-c2nnc(SCCOc3ccc(Cl)cc3)o2)c1,3%,7.2,-4,3%,-1.9%,-8,2%
O=C(Nc1ccc(Cl)cc1)c1sccc1-n1cccc1,-5%,1.5,10,-7%,.,4,?
OCc1ncc(-c2ccccc2)s1,-6%,3.6,?,22%,0.0%,?,7%
O=C(O)CCC(=O)Nc1ccccc1N1CCOCC1,-20%,-0.2,4,-2%,-3.1%,23,7%
CC(C)c1ccc(NC(=O)CC2Oc3ccccc3NC2=O)cc1 (stereo not given),-11%,-0.3,-14,3%,1.2%&0.2%,-8,-2%
O=c1nccc(Nc2ccccc2)[nH]1,-10%,-0.2,-1,15%,1.1%,-14,8%
O=C(COC(=O)c1ccc(Br)o1)Nc1ccc(S(=O)(=O)N2CCCC2)cc1,33%,3.5,-17,10%,2.0%,-4,-10%
CCN(CC)C(=O)C(=O)c1c(-c2ccccc2)[nH]c2ccccc12,-5%,0.7,-28,27%,1.8%,-9,-9%
O=C(Cc1cccc(NC(=O)C2CCN(C(=O)C3CCC3)CC2)c1)Nc1cccc(C(=O)N2CCCCC2)c1,.,.,.,.,1.1%,-1,-1%
COc1ccc(-c2c(C#Cc3ccsc3)c3cc(Br)ccc3n2C)cc1,?,.,4,.,4.2%,-5,4%
Cc1nn(Cc2cccc(C(=O)NC(C)c3ccc(C(C)(C)C)cc3)c2)c(C)c1[N+](=O)[O-] (stereo not given),27%,0.1,24,27%,0.7%,2,-3%
CCN1CCc2c(sc(NC(=O)c3ccc(S(=O)(=O)N4CCOCC4)cc3)c2C(N)=O)C1,?,4.2,5,-5%,-0.3%,-16,-1%
Cc1ccc(Nc2c(-c3ccco3)nc3nc(C)cc(C)n23)cc1,8%[15.4 µM],0.3,-6,?,-3.4%,-3,-2%
O=C(CCS(=O)(=O)c1ccc(F)cc1)N1CCN(c2ccccc2)CC1,-16%,.,-10,.,-4.8%,13,10%
O=C(Nc1cccc([N+](=O)[O-])c1)c1ccc(N2CCCC2=O)cc1,9%,-0.9,-8,5%,0.1%,9,-5%

# Rewritten field by field: 3 of the compounds above.
> Cc1nn(Cc2cccc(C(=O)NC(C)c3ccc(C(C)(C)C)cc3)c2)c(C)c1[N+](=O)[O-] (stereo not given)
  gsp agonist = 27%
  Menin-MLL FL inh = 0.1
  TRPV1 PAM = 24
  Sfp inh = 27%
  ClpP mod = 0.7%
  D2 PAM = 2
  gsp antag = -3%
> CCN1CCc2c(sc(NC(=O)c3ccc(S(=O)(=O)N4CCOCC4)cc3)c2C(N)=O)C1
  gsp agonist = ?
  Menin-MLL FL inh = 4.2
  TRPV1 PAM = 5
  Sfp inh = -5%
  ClpP mod = -0.3%
  D2 PAM = -16
  gsp antag = -1%
> Cc1ccc(Nc2c(-c3ccco3)nc3nc(C)cc(C)n23)cc1
  gsp agonist = 8%[15.4 µM]
  Menin-MLL FL inh = 0.3
  TRPV1 PAM = -6
  Sfp inh = ?
  ClpP mod = -3.4%
  D2 PAM = -3
  gsp antag = -2%

# (continued)
SMILES,gsp agonist,Menin-MLL FL inh,TRPV1 PAM,Sfp inh,ClpP mod,D2 PAM,gsp antag
CNc1nc(-c2ccccc2)cc(-c2ccccc2)n1,-29%,0.2,-12,-2%,4.3%,-6,-11%
Cc1ccc(-c2nc(C(=O)NCC3CCCO3)cc3c2[nH]c2ccccc23)cc1 (stereo not given),.,3.1,1,-22%,4.1%,-21,?
Cc1ccc(/C(N)=N/OC(=O)Cc2cccc3ccccc23)cc1,-14%,-0.8,2,-1%,.,8,0%
CCOC(=O)c1sc(NC(=O)C(C)Sc2nnc(N)s2)nc1C (stereo not given),-3%,0.9,-9,7%,-0.7%,-15,0%
COC(=O)c1cc(=O)n(Cc2ccc(F)cc2)c(=Nc2ccccc2)s1,13%,0.4,-7,-12%,-1.7%,-17,-7%
CN(CC(=O)Nc1ccc(F)cc1)C(=O)C1CCN(C(=O)Nc2ccccc2)CC1,3%,.,-12,.,-0.8%,-3,9%
Cc1cc(N2CCCC2=O)c(N)cc1N,5%,1.8,-6,0%,-3.2%,-2,6%
COc1ccc(C(=O)/C=C/c2ccc(N3CCCCC3)c([N+](=O)[O-])c2)c(OC)c1,-2%[15.4 µM],1.3,-6,-11%,1.2%,-15,-29%
CC1CCC(=NNC(=O)Cc2cccn2C)CC1 (stereo not given),-12%,3.6,-2,-5%,.,4,3%
CCc1cc(C(=O)OC)c(NC(=O)CN2CCN(C(=O)c3ccco3)CC2)s1,-56%[inhibitor],.,-15,-3%,-7.8%,1,-7%
NS(=O)(=O)c1cccc(NC(=O)CSc2nnc(C3CC3)n2-c2ccccc2)c1,-14%,.,.,.,.,3,-8%
Cc1cc(C)c(NC(=O)COC(=O)/C=C/c2cccs2)c(C)c1,9%,0.9,-43,7%,-9.4%,-11,15%
CCOc1ccc2ccccc2c1C(=O)N1CCN(c2ccccc2)CC1,-30%,-2.9,-10,1%,-2.2%,-15,3%
CCCC(C)NC(=O)CSc1nnc(-c2c[nH]c3ccccc23)o1 (stereo not given),-6%[15.4 µM],-5.4,0,20%,.,10,0%
O=C(NCCN1CCN(c2ccccc2)CC1)C1CCN(S(=O)(=O)c2cccc3nonc23)CC1,-78%[inhibitor],2.3,?,13%,-1.4%,-6,7%
COc1ccc(CCNc2ccc(N3C(=O)CC(C)C3=O)cc2[N+](=O)[O-])cc1OC (stereo not given),-6%[15.4 µM],-0.3,?,5%,.,-7,?
COC(=O)N1C(=O)[C@](c2ccc(OC)cc2)(C(C)C)N1C(=O)OC,27%,-12,22,-2%,2.1%,-5,11%
